High-throughput results as filed in PubChem.
VDR inh: inhibitors of human vitamin D receptor; P11473; VDR-SRC2-3 peptide fluorescence polarization, 2 h; Potency, µM, for the others: max response, negative = inhibition, actives largely listed as inhibitors; hit rate 0.93% among 400,000; active means well fitted inhibition curve with a large enough effect; inconclusive means small, poorly fitted or top-dose-only effect, or another doubt; inactive means no such curve, though single readings can be large or run the other way; further: series mostly up to about 120 µM
Target sequence (P11473 whole entry, looked up): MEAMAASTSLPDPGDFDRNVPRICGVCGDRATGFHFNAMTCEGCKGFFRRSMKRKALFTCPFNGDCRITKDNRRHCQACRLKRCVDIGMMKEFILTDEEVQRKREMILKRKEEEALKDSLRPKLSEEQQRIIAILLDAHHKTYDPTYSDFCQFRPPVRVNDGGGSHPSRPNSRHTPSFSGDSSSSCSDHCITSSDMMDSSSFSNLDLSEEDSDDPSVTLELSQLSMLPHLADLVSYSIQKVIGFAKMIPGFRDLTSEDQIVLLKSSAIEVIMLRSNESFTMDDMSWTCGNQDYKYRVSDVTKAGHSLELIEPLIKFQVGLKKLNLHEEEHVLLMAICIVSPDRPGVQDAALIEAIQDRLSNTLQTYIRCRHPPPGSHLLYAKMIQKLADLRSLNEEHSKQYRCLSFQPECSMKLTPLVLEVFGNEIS
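Compounds are added to VDR with labelled SRC2-3 coactivator peptide and held 2 h at room temperature. Inhibition of the VDR–peptide interaction is then read as a change in fluorescence polarization.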
An asterisk follows results filed as active; ? = inconclusive; & = joins results of further samples; [ ] = dose if it differs, or a comment. On the % scale 0 is the no-effect control and ±100 the full control effect; potency means the concentration at half of the fitted maximal effect.

VDR inh,mol
4%,Cc1cc(S(=O)(=O)Nc2ccc(C(=O)NCC(C)(C)N3CCOCC3)cc2)ccc1F
8%,CC(C)(C)OC(=O)N1CCC(c2c(C(=O)N3CCCCC3)cnn2-c2ccc(F)cc2F)CC1
5%,Cc1ccc2oc(C(=O)Nc3cccc(-c4nc5ccccc5s4)c3)c(C)c2c1
-4%,N#CCCn1cc(C(=O)Nc2cccc(C(=O)O)c2)c(-c2ccc(Cl)cc2)n1
3%,Cc1cc2oc(=O)c3c(c2cc1OCc1nn[nH]n1)CCCC3
12%,COC(=O)c1cccc(Cn2c(Cl)c(/C=N/NC(=O)c3ccco3)sc2=O)c1
-8%,COc1cccc(CC(=O)N2CCN(c3ccccc3[N+](=O)[O-])CC2)c1
-18%,Cc1ccc(C(=O)OCCc2c(C)[nH]n(-c3ccccc3)c2=O)cc1
18%,Cc1ccc(NC(=O)CN2CCc3ccccc3C2)cc1
17%,CN1CCN(S(=O)(=O)c2cccc(C(=O)NC3CCCc4ccccc43)c2)CC1 (centres undefined)
-4%,Nc1ccc2nc(-c3ccc(O)cc3)sc2c1
-13%,Cc1cccc(NC(=O)CSc2nnc(CNC(=O)c3ccc(S(=O)(=O)N(C)C)cc3)n2-c2ccccc2)c1

Single entries from the list:
Cc1ccc(NC(=O)CN2CCc3ccccc3C2)cc1 | VDR inh = 18%
Cc1cc(S(=O)(=O)Nc2ccc(C(=O)NCC(C)(C)N3CCOCC3)cc2)ccc1F | VDR inh = 4%

The list goes on.
VDR inh,mol
3%,C=CCN1C(=O)CN=C1Nc1cc(C)ccc1C
33%[activator],CNC(=O)/C(C#N)=C/c1c(N2CCN(C)CC2)nc2c(C)cccn2c1=O
8%,O=C(CSc1nc(=O)[nH]c2c1CCC2)NCc1ccc(F)cc1
6%,CCOc1ccc(CNC(=O)C2CCCN(c3nn4cc(-c5ccc(OC)cc5)nc4s3)C2)cc1 (centres undefined)
33%[activator],CCOC(=O)c1cnc2ccc(OC)cc2c1Nc1ccc2c(c1)OCCO2
-1%,COc1ccc(C(=O)Cn2nnc(-c3ccccc3NC(=O)C(F)(F)F)n2)cc1
-7%,O=C(C[n+]1ccccc1)c1ccc(-c2ccccc2)cc1
32%[activator],S=C(NCCCN1CCOCC1)N(Cc1ccccc1)Cc1ccccc1
-3%,Cc1ccc(NC(=S)N2CCN(C(=O)C3CCCO3)CC2)cc1 (centres undefined)
14%,CSc1ncc(C(=O)NCc2ccccc2F)c(-c2ccccc2)n1
-5%,Cc1ccc2c(c1C)NC(=O)CC2c1ccc(Cl)cc1Cl (centres undefined)
-2%,Cc1ccc(-n2ncc3c(N(CC(C)C)CC(C)C)ncnc32)c(C)c1
-4%,CN(C)c1ccc(NC(=O)Nc2ccc3snnc3c2)cc1
8%,CC(=O)c1cnc(Nc2ccccc2)s1
-14%,O=C(Cn1cnc(S(=O)(=O)N2CCCCC2)c1)N1CCN(c2ccc([N+](=O)[O-])cc2)CC1
-14%,O=C1c2ccccc2C(Nc2ccc3c(c2)OCCO3)N1Cc1ccc2c(c1)OCO2 (centres undefined)
-10%,Cc1cccc(NC(=O)CSCC(=O)Nc2ccc(N3CCOCC3)cc2N2CCOCC2)c1
-8%,CCCC(=O)Nc1cc(-c2nc3ncccc3o2)ccc1C
14%,C=CCOC(=O)C1=C(C)N(C)C(=O)NC1c1cc2c(cc1Br)OCO2 (centres undefined)
3%,COc1ccccc1NC(=O)CSc1nnc(C)s1
-4%,COc1ccc(Oc2nc3c(c(=O)n(Cc4ccc(Br)cc4)c(=O)n3C)n2C)cc1
-6%,COc1cc(NS(=O)(=O)c2ccc(NC(=O)c3ccc(OC)c(Br)c3)cc2)nc(OC)n1
33%[activator],COc1ccc(-n2c(=S)[nH]c3ccccc3c2=S)cc1
-5%,CCN(CC)C(=O)[C@H]1CC(CC(=O)NCC23CC4CC(CC(C4)C2)C3)C(=O)N2CCc3c([nH]c4ccc(OC)cc34)[C@]12C (some centres undefined)
-2%,CCc1nn(CC(=O)NC(C)CC)c(=O)c2cc3c(OC)cccc3n12 (centres undefined)
-11%,COc1ccccc1-c1cn[nH]c1-c1ccc(OCC(=O)NN)cc1O
1%,COc1ccc(NC=O)c(C(=O)CCNC(C)=O)c1
56%[activator],CCOc1cc(/C=C/c2nc3ccccc3c(=O)[nH]2)ccc1O
-6%,COc1cc(CN(C)Cc2cc(=O)n3ccsc3n2)ccc1OC(F)F
-16%,CC(C)(C)C(=O)CNS(=O)(=O)c1ccc(S(=O)(=O)NC2CC2)cc1
-1%,CC1CCC(Nc2nnnn2-c2ccccc2)CC1 (centres undefined)
-23%,COc1cc(C(=O)Nc2ccc(-c3nc4ccccc4o3)c(O)c2)cc(OC)c1OC
-20%,C#CCn1c(=NC(=O)c2ccc(S(=O)(=O)N3CCCc4ccccc43)cc2)sc2cc(S(N)(=O)=O)ccc21
-2%,Cc1nc2nc(SCC(=O)N3CCOCC3)nn2c(C)c1Cc1c(F)cccc1Cl
-6%,O=C(NC12CC3CC(CC(C3)C1)C2)C1CC(=O)N(c2ccccc2)C1 (centres undefined)
-2%,COc1nc(-c2ccccc2)ccc1-c1noc(-c2cccnc2)n1
-17%,CCCCn1c(N)c(N(CCOC)C(=O)C2CCN(S(=O)(=O)c3ccc(C)c(C)c3)CC2)c(=O)[nH]c1=O
26%,CC1CCN(CCCNS(=O)(=O)c2ccc3c(c2)CCN3C(=O)C2CC2)CC1
-9%,O=C(Nc1ccccc1C(=O)NCCCn1ccnc1)c1ccccc1
5%,COc1ccccc1CNC(=O)c1cc2ccccc2o1
-6%,CCOC(=O)c1ccc(N2Cc3ccccc3C2=NC(=O)c2cccs2)cc1
-20%,Cc1ccc(/C=N/Nc2nnc(Cl)c3ccccc23)cc1
2%,COc1cc(/C=C2\NC(=O)NC2=O)cc(Br)c1OC
5%,O=C1CCC(=O)O1
-10%,COc1ccccc1C(=O)NCCC(=O)N(Cc1ccco1)Cc1cccs1
-26%,COC(=O)c1ccccc1NC(=S)NC(=O)c1ccc2ccccc2c1
3%,COc1ccc2sc(-c3ccccc3OC)c(C#Cc3cncn3C)c2c1
-1%,CCC(=O)c1cn(CC(=O)Nc2ccc(OC)cc2)c2ccccc12

Some of the entries so far, tab-delimited:
canonical_smiles	VDR inh
COc1ccccc1C(=O)NCCC(=O)N(Cc1ccco1)Cc1cccs1	-10%
COC(=O)c1ccccc1NC(=S)NC(=O)c1ccc2ccccc2c1	-26%
COc1ccc2sc(-c3ccccc3OC)c(C#Cc3cncn3C)c2c1	3%
CCC(=O)c1cn(CC(=O)Nc2ccc(OC)cc2)c2ccccc12	-1%

(cont.)
VDR inh,mol
-16%,CN(C)c1ncc2nc(-c3ccc(Cl)cc3)c(=O)n(C3CC3)c2n1
19%,COc1ccc(N2CCN(c3oc(-c4ccc(OC)c(OC)c4)nc3C#N)CC2)cc1
13%,Cc1csc(Nc2nc(N)c(C(=O)Nc3ccccc3)o2)n1
45µM*,C/C(CCC1CC(C)OC1=O)=N/Nc1nc(-c2ccccc2)cs1 (centres undefined)
9%,O=C(Nc1cccc(NC(=O)c2cccs2)c1)c1ccc2c(c1)OCCO2
-7%,CCCC[C@H]1COCCS(=O)(=O)N1Cc1ccc(Br)cc1
17%,Cc1ccc2oc(C(=O)Nc3ccc(S(=O)(=O)Nc4nc(C)cc(C)n4)cc3)cc(=O)c2c1
-1%,Cn1cc(S(=O)(=O)Nc2cccc(F)c2)c(=O)n(C)c1=O
7%,C(=N\N1CCOCC1)/c1nc(-c2ccccc2)n2ccccc12
4%,CCOc1ccc(CN(C)C(=O)Cc2c[nH]c3ccccc23)cc1
11%,CC(C)NC(=O)CSc1nnc(-c2ccc(S(=O)(=O)N3CCCC3)cc2)n1CC1CCCO1 (centres undefined)
-19%,COc1ccccc1C1Nc2ccccc2NC2=C1C(=O)CC(C)(C)C2 (centres undefined)
9%,O=C(Cn1c(=O)n(CC(=O)N2CCCCC2)c(=O)c2sccc21)NCc1ccccc1
4%,CCOc1cc(NC(=O)c2ccco2)c(OCC)cc1NC(=O)Cc1ccc(OC)c(OC)c1
7%,CCOC(=O)CSc1nc(COc2ccccc2)nc2ccccc12
-15%,CSC1=N/C(=C\c2ccc(F)cc2)C(=O)S1
4%,CSCC[C@H](NC(=O)[C@H](CC(C)C)NC(=O)CNC(=O)[C@@H]1CCCN1C(=O)[C@H](Cc1ccccc1)NC(=O)[C@H](Cc1ccccc1)NC(=O)[C@H](CC(=O)O)NC(=O)[C@H](Cc1cnc[nH]1)NC(=O)[C@H](CCSC)NC(=O)[C@@H](N)CC(=O)O)C(N)=O
4%,CC(C)(C)c1ccc(C2=CSC3=NCCN23)cc1
-14%&7%,Cc1nn(-c2ccccc2)c(N2CCCC2)c1/C=N/n1cnc2scc(-c3ccccc3)c2c1=O
-7%,CN(C)S(=O)(=O)c1cccc(C(=O)Nc2ccccc2)c1
7%,CCOC(=O)C1=C(CN(C)Cc2ccccc2)NC(=O)NC1c1ccc(OC)cc1 (centres undefined)
-1%,CC1(C)CC2CC(C)(CN2C(=O)COC(=O)c2ccc(NC(=O)CC#N)cc2)C1 (centres undefined)
5%,S=C(NCCCc1ccccc1)Nc1ccc(Cl)cc1
-6%,Cc1cc(C)c(NC(=O)C2CSCCS2)c(C)c1 (centres undefined)

Structural class, those above containing a COOH group.
VDR inh,mol
-4%,N#CCCn1cc(C(=O)Nc2cccc(C(=O)O)c2)c(-c2ccc(Cl)cc2)n1
4%,CSCC[C@H](NC(=O)[C@H](CC(C)C)NC(=O)CNC(=O)[C@@H]1CCCN1C(=O)[C@H](Cc1ccccc1)NC(=O)[C@H](Cc1ccccc1)NC(=O)[C@H](CC(=O)O)NC(=O)[C@H](Cc1cnc[nH]1)NC(=O)[C@H](CCSC)NC(=O)[C@@H](N)CC(=O)O)C(N)=O

Next part:
VDR inh,mol
12%,CC(=O)N1CCN(S(=O)(=O)c2cccc(C(=O)OCN3C(=O)c4ccccc4C3=O)c2)CC1
-24%,Cc1ccc(C(=O)NC2CCS(=O)(=O)C2)cc1S(=O)(=O)N1CCCC1 (centres undefined)
3%,CC1CCCCC1NC(=O)c1cc(=O)[nH]c2ccccc12 (centres undefined)
-8%,COc1ccc2c(c1)c(=O)c(S(=O)(=O)c1ccc(F)cc1)cn2CC(=O)Nc1ccc(C)cc1C
-28%,O=C(CCN1CCc2ccccc21)c1ccc2c(c1)OCCO2
?,O=C1c2ccccc2C(=O)N1CCCc1c[nH]c2ccc(Cl)cc12
-1%,Cc1nc2cc(-c3ccc(Br)cc3)[nH]n2c(=O)c1Cl
1%,COc1ccc(CNC(=O)C(NC(C)=O)C(=O)Nc2ccc(OC)cc2)cc1 (centres undefined)
0%,Cc1ccccc1CN(C)CC(=O)Nc1ccccc1Oc1ccccc1
0%,COC(=O)c1cc(Nc2cc(C)nc3ncnn23)cc(C(=O)OC)c1
10%,COc1ccc(OC)c(-n2cnc3cc(C(=O)NCCCN4CCOCC4)ccc32)c1
20%,COc1ccc(CNC(=O)CN(Cc2ccc(OC)cc2)C(=O)CCC(=O)Nc2ccccn2)cc1

Another view of 4 compounds above:
canonical_smiles,VDR inh
Cc1ccccc1CN(C)CC(=O)Nc1ccccc1Oc1ccccc1,0%
COC(=O)c1cc(Nc2cc(C)nc3ncnn23)cc(C(=O)OC)c1,0%
COc1ccc(OC)c(-n2cnc3cc(C(=O)NCCCN4CCOCC4)ccc32)c1,10%
COc1ccc(CNC(=O)CN(Cc2ccc(OC)cc2)C(=O)CCC(=O)Nc2ccccn2)cc1,20%

(list continues)
VDR inh,mol
-6%,COc1ccc(CNC(=O)c2cccs2)cc1
18%,CCOC(=O)C1CCCc2c1[nH]c1ccc(Cl)cc21 (centres undefined)
20%,Cc1ccc(O)c(NC(=O)c2cc3nc4c(c(C(F)(F)F)n3n2)CCc2ccccc2-4)c1
-12%,COc1ccccc1NC(=O)c1cc2c(cc1Cl)N1CCCCCC1=NS2(=O)=O
-8%,CCc1cccc2c(C(=O)CN3C(=O)NC4(CCCCCC4)C3=O)c[nH]c12
3%,CCc1ccc(CNC(=O)c2nn(-c3ccc(C)cc3)c(=O)c3c2c2ccccc2n3C)cc1
8%,COc1cccc(/C=C2\Oc3cc(OCC(=O)N4CCCC4)ccc3C2=O)c1OC
-9%,COC(=O)c1ccccc1Sc1snnc1C
-11%,N#Cc1c(C(F)(F)F)cc(-c2ccc(Cl)c(Cl)c2)nc1SCCN1CCOCC1
?,O=C(CC1C(=O)NCCN1CC1CCCCC1)NCc1cc(F)ccc1F (centres undefined)
7%,Cc1cccc(CNC(=O)CN2C(=O)CSc3c2c(C)nn3-c2ccccc2)c1
135%[activator],C=CCc1cccc(/C=N/NC(=O)C[n+]2ccccc2)c1O
-8%,CCOC(=O)c1cc2c(ccn2C)n1Cc1cc(C)ccc1C
18%,CC1CCC2(CC1)NC(=O)N(CC(=O)c1ccc[nH]1)C2=O (centres undefined)
-18%,CCCN1C(=O)/C(=C/c2c(NCCCOC(C)C)nc3c(C)cccn3c2=O)SC1=S
8%,CCC(C)c1ccc(OCC(=O)Nc2ccc(Cl)cn2)cc1 (centres undefined)
-13%,Cc1ccc2cc(C)c(SCC#N)nc2c1
-6%,CCOc1ccccc1NC(=O)C1=C(C)NC(=O)NC1c1cccc(OC)c1OC (centres undefined)
?,Cc1cc(O)c(C(C)C)cc1N=Cc1cc([N+](=O)[O-])ccc1O
0%,CCN(CC)S(=O)(=O)c1ccc(/C=C/C(=O)N(c2ccccn2)C2CCCCC2)cc1
-3%,CCOc1ccc(C(=O)Nc2ccc(CN3CCOCC3)cc2)cc1Cl
-1%,COCCn1c(CN2CCN(C)CC2)nc2c1c(=O)n(C)c(=O)n2C
-22%,O=C(Oc1ccccc1-c1csnn1)c1cccs1
6%,O=C(O)c1ccc(COc2ccc3ccccc3c2/C=C2/NC(=O)N(c3ccccc3)C2=O)cc1
-9%,Nc1ncnc(Nc2cccc(F)c2)n1

Some of the compounds tested (hit frequency here may not be typical).
